Screens as filed in PubChem.
MITF inh = blocks MITF activity; hit rate 0.28% among 37,000; inhibition, % (test concentration not listed); AID 2240; TRPM1 promoter luciferase, luminescence, 24 h;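 active means most replicates at 85% or more, or half of them and the mean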;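 further: human melanocyte line stably carrying TRPM1 promoter luciferase reporter; 0% = vehicle wells and 100% = a positive control; the first replicate is given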
YB-1 expression = YB-1 expression inhibition | U2OS, qRT-PCR YB-1 vs CDIP delta delta Cp, 16 h; stronger effect = higher value; zero = DMSO, each unit about twofold | delta delta Cp (YB-1 minus CDIP) (no concentration beside the values) | hit rate 0.37% among 30,000 | AID 434959;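 active means delta delta Cp rounded down to an integer at or above 3, about 3 SD of DMSO wells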;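 further: higher means less YB-1 transcript or more CDIP transcript relative to DMSO; stock transfer was 100 nL into about 100 µL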
PD-1 reversal = activators reversing PD-1 mediated T-cell inhibition; AID 2316; primary human CD4 T cells, PD-L1 beads, CellTiter-Glo 96 h; activation, % (no concentration beside the values); 29,000 tested, under 10 active;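 active means replicate mean of 50% or more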;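 further: 0% = median vehicle wells and 100% = positive control; 100 nL library stock added to about 50 µL; numbers are from one replicate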
Hedgehog inh = Sonic Hedgehog pathway inhibition; Shh-LIGHT2 Gli-luciferase reporter, 30 h; hit rate 2.1% among 22,000; inhibition, % (no concentration beside the values); AID 2313;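 active means replicate mean of 65% or more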;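 further: pathway switched on by Shh-conditioned medium diluted 1 in 25 in low serum; 100 nL library stock added to about 40 µL; 0% = median of neutral wells and 100% = positive control level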
The depositor's hits bear a star; . = not tested or not shown.

Below each compound – MITF inh, YB-1 expression, PD-1 reversal, Hedgehog inh
> CC(NS(=O)(=O)c1ccc(Cl)cc1)C(=O)Nc1ccccc1C(F)(F)F (stereo not given)
→ -4, ., -0.2, .
> Cc1noc(C)c1NC(=O)N(C)C[C@H]1Oc2ccc(NS(=O)(=O)c3ccccc3)cc2CC(=O)N([C@@H](C)CO)C[C@H]1C
→ -4, -0.24, 1.0, .
> C[C@H](CO)N1C[C@H](C)[C@H](CN(C)C(=O)Nc2ccc3c(c2)OCO3)Oc2ccc(NC(=O)Cn3cnnn3)cc2CC1=O
→ 12, 0.35, 1.3, 48
> COc1ccc(NC(=O)Nc2ccc3c(c2)C(=O)N([C@H](C)CO)C[C@H](C)[C@@H](CN(C)S(=O)(=O)c2ccc(F)cc2)O3)cc1
→ -5, -0.21, 0.0, -31
> Cc1cc(=O)[nH]c(SCc2cn3c(C)cc(C)nc3n2)n1
→ -1, 0.13, -0.3, -20
> C[C@@H]1CCCCO[C@@H](CN(C)Cc2ccc(C(=O)Nc3ccccc3N)cc2)[C@@H](C)CN([C@H](C)CO)C(=O)c2cc(NC(=O)Nc3ccc(C(F)(F)F)cc3)ccc2O1
→ 7, -0.27, -6.0, .
> C[C@H](CO)N1C[C@H](C)[C@@H](CN(C)C(=O)NC2CCCCC2)Oc2c(NC(=O)c3cnccn3)cccc2C1=O
→ -4, 0.35, 2.3, -105
> COc1cc(C2NC(=S)NC(c3ccccc3)=C2C(C)=O)cc(Cl)c1OCC(=O)O (stereo not given)
→ -8, ., 0.3, .
> COc1ccc(NC(=O)Nc2ccc3c(c2)CC(=O)N([C@H](C)CO)C[C@@H](C)[C@H](CN(C)Cc2ccc4c(c2)OCO4)O3)cc1
→ -3, -0.044, 2.3, 25
> Cc1ccc(S(=O)(=O)N(C)C[C@@H]2Oc3ccc(NS(=O)(=O)c4c(C)noc4C)cc3C(=O)N([C@@H](C)CO)C[C@H]2C)cc1
→ 3, -0.11, ., .
> COc1ccc(S(=O)(=O)Nc2ccc3c(c2)C(=O)N([C@H](C)CO)C[C@H](C)[C@@H](CN(C)C(=O)Nc2cccc4ccccc24)O3)cc1
→ 4, 0.12, 0.9, .
> C[C@H]1CN([C@@H](C)CO)C(=O)c2cc(NC(=O)Nc3ccc(C(F)(F)F)cc3)ccc2O[C@@H]1CN(C)S(=O)(=O)c1cn(C)cn1
→ 2, -0.21, -0.3, .
> COc1cccc(C(=O)COc2cccc(NC(=O)c3ccco3)c2)c1
→ -11, ., -1.8, .
> C[C@@H]1CN([C@@H](C)CO)C(=O)Cc2cc(NS(=O)(=O)c3ccc(F)cc3)ccc2O[C@@H]1CN(C)S(C)(=O)=O
→ -9, -0.13, 2.1, 12
> Cc1cc2ncn(CC(O)COc3ccc(C(C)C)cc3)c2cc1C (stereo not given)
→ -6, ., -6.0, .
> CC(C)NC(=O)Nc1cccc2c1O[C@H](CN(C)Cc1ccc(Cl)c(Cl)c1)[C@H](C)CN([C@H](C)CO)C2=O
→ -18, -0.19, -0.3, 1
> NC(=S)/N=C1\CCCCC1=C1CCCCC1
→ 6, 0.15, -2.2, -7
> CC(C)NC(=O)N(C)C[C@H]1Oc2ccc(NC(=O)Nc3ccc4c(c3)OCO4)cc2CC(=O)N([C@@H](C)CO)C[C@H]1C
→ -10, 0.14, 1.4, 3
> NC(=O)c1ccc(NC(=O)CNS(=O)(=O)c2cc(Cl)ccc2Cl)cc1
→ 6, ., 2.4, .
> C[C@@H]1CN([C@@H](C)CO)C(=O)c2cccc(NC(=O)NC3CCCCC3)c2O[C@H]1CN(C)C(=O)NC1CCCCC1
→ 8, -0.04, ., -15
> COc1ccc(S(=O)(=O)Nc2ccc3c(c2)CC(=O)N([C@@H](C)CO)C[C@@H](C)[C@@H](CN(C)C(=O)Nc2cccc4ccccc24)O3)cc1
→ -9, -0.049, ., 2
> O=C(c1cccs1)c1coc2ccc(O)cc12
→ -40, -0.13, -0.2, 0
> O=C(c1cccc(Cl)c1)N1CCCC1
→ -19, -0.33, -0.2, -8
> C[C@@H]1CN([C@H](C)CO)C(=O)Cc2cc(NC(=O)Nc3cccc4ccccc34)ccc2O[C@H]1CN(C)S(=O)(=O)c1cn(C)cn1
→ -8, 0.21, ., .
> C[C@@H]1CN([C@@H](C)CO)C(=O)c2cccc(NS(=O)(=O)c3ccc(Cl)cc3)c2O[C@@H]1CN(C)CC1CCCCC1
→ -4, 0.92, -0.9, -9
> COc1cc2occ(-c3ccc(O)cc3)c(=O)c2c(OC)c1O
→ 5, -0.33, ., 24
> C[C@@H]1CN([C@H](C)CO)C(=O)Cc2cc(NS(=O)(=O)c3ccc(F)cc3)ccc2O[C@@H]1CN(C)Cc1ccc(Oc2ccccc2)cc1
→ 10, -0.12, -1.8, 23
> Cn1c(SCC(=O)Nc2ccccc2[N+](=O)[O-])nc2ccccc2c1=O
→ 41, ., 1.5, .
> C[C@@H]1CN([C@H](C)CO)C(=O)c2cccc(NS(=O)(=O)c3ccc(F)cc3)c2O[C@H]1CN(C)C(=O)NC1CCCCC1
→ -3, 0.044, 0.0, 25
> C[C@@H]1CN([C@@H](C)CO)C(=O)c2cc(NC(=O)Cc3ccccc3)ccc2O[C@H]1CN(C)S(=O)(=O)c1ccc(F)cc1
→ -1, -0.061, ., -10
> C[C@@H]1O[C@@H](OC[C@H]2O[C@@H](c3c(O)cc4oc(-c5ccc(O)c(O)c5)cc(=O)c4c3O)[C@H](O)[C@@H](O)[C@@H]2O)[C@H](O)[C@H](O)[C@H]1O
→ ., 0.42, ., 15
> Oc1c(C(Nc2cccnc2)c2ccc(Cl)cc2)ccc2cccnc12 (stereo not given)
→ 39, ., -14, .
> C[C@H]1CN([C@@H](C)CO)C(=O)c2cc(NC(=O)Cn3cnnn3)ccc2O[C@H]1CN(C)C(=O)NC1CCCCC1
→ 3, -0.37, ., 12
> C/C=C1\C(O[C@@H]2O[C@H](CO)[C@@H](O)[C@H](O)[C@H]2O)OC=C(C(=O)OC)C1CC(=O)OC[C@H]1O[C@@H](OCCc2ccc(O)cc2)[C@H](OC(=O)CC2C(C(=O)OC)=COC(O[C@@H]3O[C@H](CO)[C@@H](O)[C@H](O)[C@H]3O)/C2=C\C)[C@@H](O)[C@@H]1O (stereo not given in full)
→ -10, 0.67, -0.5, -20
> CNC[C@@H]1Oc2ccc(NC(=O)Nc3ccccc3)cc2CC(=O)N([C@H](C)CO)C[C@H]1C
→ -7, -0.073, 1.2, -26
> Cc1noc(C)c1NC(=O)N(C)C[C@H]1Oc2ccc(NC(=O)C3CCCCC3)cc2C(=O)N([C@H](C)CO)C[C@H]1C
→ -5, -0.48, -0.8, -29
> C[C@H](CO)N1C[C@H](C)[C@H](CN(C)Cc2ccc3c(c2)OCO3)Oc2ccc(NC(=O)Nc3ccccc3)cc2C1=O
→ -12, 0.49, 0.5, .
> COc1ccc(S(=O)(=O)N(C)C[C@@H]2Oc3ccc(NC(=O)CCC(F)(F)F)cc3CC(=O)N([C@@H](C)CO)C[C@@H]2C)cc1
→ 5, 0.18, 0.0, -55
> Cc1ccc(S(=O)(=O)N(C)C[C@H]2Oc3ccc(NC(=O)Nc4c(C)noc4C)cc3C(=O)N([C@H](C)CO)C[C@@H]2C)cc1
→ 4, 0.15, 0.4, 3
> CC(=O)c1cccc(N(CC(=O)N2CCN(c3ccccc3F)CC2)S(C)(=O)=O)c1
→ -6, ., 1.6, .
> Cc1ccc2cc3c(nc2c1)N(c1ccccc1)CC3
→ 9, -0.11, 1.2, .
> C[C@@H]1CN([C@@H](C)CO)C(=O)c2cccc(NC(=O)Nc3ccc(C(F)(F)F)cc3)c2O[C@@H]1CN(C)C(=O)Nc1cccc2ccccc12
→ 8, 0.46, -1.0, -5
> CC1(C)CC(=O)c2ccc(O)cc2O1
→ -4, 2, -0.8, 8
> Cc1noc(C)c1NC(=O)N(C)C[C@@H]1Oc2ccc(NS(=O)(=O)c3cn(C)cn3)cc2C(=O)N([C@H](C)CO)C[C@H]1C
→ 19, -0.9, 0.8, -5
> O=C(CN1CCOCC1)Nc1sc2c(c1C(=O)Nc1ccc(Br)cc1)CCCC2
→ 22, ., -3.1, .
> C[C@H](CO)N1C[C@H](C)[C@H](CN(C)C(=O)Nc2ccc(F)cc2)Oc2ccc(NC(=O)C3CCCCC3)cc2C1=O
→ -10, 0.089, -2.3, 8
> COc1ccc(S(=O)(=O)Nc2ccc3c(c2)C(=O)N([C@@H](C)CO)C[C@H](C)[C@@H](CN(C)C(=O)Nc2ccccc2)O3)cc1
→ -12, -0.71, 1.2, .
> C#CCN1C(=O)C(O)(CC(=O)c2ccc(C)o2)c2ccccc21 (stereo not given)
→ 7, ., -0.7, .
> COc1ccc(OC)c(NC(=O)CN(c2ccc(Br)c(C)c2)S(C)(=O)=O)c1
→ 3, ., -1.9, .
> Cc1noc(C)c1NC(=O)Nc1ccc2c(c1)CC(=O)N([C@@H](C)CO)C[C@H](C)[C@@H](CN(C)Cc1ccncc1)O2
→ -1, 0.17, -0.8, -25
> COc1ccc(NC(=O)Nc2ccc3c(c2)C(=O)N([C@H](C)CO)C[C@H](C)[C@H](CN(C)C(=O)NC(C)C)OCCCC[C@@H](C)O3)cc1
→ 1, -0.49, ., -1
> C[C@@H]1CN([C@@H](C)CO)C(=O)c2cccc(NC(=O)Nc3ccc(F)cc3)c2O[C@H]1CN(C)C(=O)Nc1ccc(F)cc1
→ -4, -0.15, 1.4, -11
> C[C@@H]1CN([C@@H](C)CO)C(=O)c2cc(NC(=O)Nc3ccc(C(F)(F)F)cc3)ccc2O[C@H]1CN(C)Cc1ccc(Oc2ccccc2)cc1
→ 60, -0.29, -7.1, 23
> C[C@@H]1CN([C@@H](C)CO)C(=O)c2cc(NC(=O)C3CCCCC3)ccc2O[C@H]1CN(C)S(=O)(=O)c1ccccc1
→ -5, 0.25, 0.4, .
> C[C@H]1CN([C@@H](C)CO)C(=O)c2cc(NC(=O)Cc3ccccc3)ccc2O[C@H]1CN(C)Cc1ccc(C(=O)O)cc1
→ -9, -0.36, 2.5, .
> C[C@H](CO)N1C[C@H](C)[C@@H](CN(C)S(=O)(=O)c2ccc(Cl)cc2)Oc2ccc(NC(=O)Cc3cn(C)c4ccccc34)cc2C1=O
→ 35, -0.68, -1.0, 5
> CCOC(=O)c1cnc2cc(C(F)(F)F)ccc2c1N1CC(C)CC(C)C1 (stereo not given)
→ 21, -0.037, -0.4, 48
> COC(=O)c1ccc(NC(=O)CN(c2ccc(C)c(Cl)c2)S(C)(=O)=O)cc1
→ -11, ., 2.5, .
> CNC[C@@H]1Oc2ccc(NS(=O)(=O)c3cccs3)cc2C(=O)N([C@@H](C)CO)C[C@H]1C
→ -5, 0.29, 3.8, .
> CCc1c(C)nc(SCC(=O)Nc2ccc(C(=O)OC)cc2)[nH]c1=O
→ 14, ., -0.2, .

Following part
Below each compound – MITF inh, YB-1 expression, PD-1 reversal, Hedgehog inh
> C[C@@H]1CN([C@@H](C)CO)C(=O)c2cccc(NS(=O)(=O)c3cccs3)c2O[C@@H]1CN(C)CC1CCCCC1
→ -15, 0.48, -0.7, -8
> COCCN1C(=O)/C(=C/c2cc(C)n(-c3ccncc3)c2C)C(=O)N(c2ccccc2)C1=O
→ -14, -0.25, 0.2, 4
> C[C@H](CO)N1C[C@H](C)[C@H](CN(C)Cc2ccc(Cl)c(Cl)c2)Oc2ccc(NC(=O)Cn3cnnn3)cc2C1=O
→ 22, -0.32, 0.3, -44
> C[C@@H]1CN([C@H](C)CO)C(=O)c2cc(NC(=O)Nc3cccc4ccccc34)ccc2O[C@H]1CN(C)Cc1ccc(C(=O)O)cc1
→ 12, -1.2, -0.5, .
> CCc1ccc(OCC(=O)Nc2ccc(-c3nc4ccccc4s3)c(O)c2)cc1
→ -96, ., 1.1, .
> O=C(CNS(=O)(=O)c1cccc(C(F)(F)F)c1)Nc1ccccc1F
→ 2, ., 0.1, .
> CC(=O)O[C@H]1CC[C@@]2(C)C(CC[C@]3(C)C2C(=O)C=C2C4[C@@H](C)[C@H](C)CC[C@]4(C(=O)O)CC[C@]23C)C1(C)C (stereo not given in full)
→ -9, 0.032, 1.7, -79

A portion from further up, as a working copy:
Below each compound – MITF inh, YB-1 expression, PD-1 reversal, Hedgehog inh
> CC(NS(=O)(=O)c1ccc(Cl)cc1)C(=O)Nc1ccccc1C(F)(F)F (stereo not given)
→ -4, ., -0.2, .
> Cc1noc(C)c1NC(=O)N(C)C[C@H]1Oc2ccc(NS(=O)(=O)c3ccccc3)cc2CC(=O)N([C@@H](C)CO)C[C@H]1C
→ -4, -0.24, 1.0, .
> C[C@H](CO)N1C[C@H](C)[C@H](CN(C)C(=O)Nc2ccc3c(c2)OCO3)Oc2ccc(NC(=O)Cn3cnnn3)cc2CC1=O
→ 12, 0.35, 1.3, 48
> COc1ccc(NC(=O)Nc2ccc3c(c2)C(=O)N([C@H](C)CO)C[C@H](C)[C@@H](CN(C)S(=O)(=O)c2ccc(F)cc2)O3)cc1
→ -5, -0.21, 0.0, -31

This is a subset; the hit share may differ from the screen's.
